From PubChem
VDR inhibitor = vitamin D3 receptor (human) inhibition; P11473; Potency, µM, without a hit: max response, negative = inhibition, most hits filed as inhibitors; 0.93% of 400,000 active; AID 504847; VDR-SRC2-3 peptide fluorescence polarization, 2 h; active = well fitted inhibition curve with a large enough effect; inconclusive = small, poorly fitted or top-dose-only effect, or another doubt; inactive = no such curve, though single readings can be large or run the other way; note: series mostly up to about 120 µM
Target sequence (P11473 whole entry, looked up): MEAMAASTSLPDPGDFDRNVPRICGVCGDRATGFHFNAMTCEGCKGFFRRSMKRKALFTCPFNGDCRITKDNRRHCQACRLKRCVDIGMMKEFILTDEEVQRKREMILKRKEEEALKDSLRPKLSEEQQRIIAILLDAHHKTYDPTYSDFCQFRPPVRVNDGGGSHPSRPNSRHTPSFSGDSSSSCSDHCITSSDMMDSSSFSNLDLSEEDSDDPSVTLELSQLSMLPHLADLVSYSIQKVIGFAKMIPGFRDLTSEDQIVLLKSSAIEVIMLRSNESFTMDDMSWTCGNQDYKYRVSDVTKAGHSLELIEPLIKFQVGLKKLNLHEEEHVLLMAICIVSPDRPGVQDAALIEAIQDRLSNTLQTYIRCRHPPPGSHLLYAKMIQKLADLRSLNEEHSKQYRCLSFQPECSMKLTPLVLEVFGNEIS
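Fluorescence polarization assay measuring small-molecule disruption of VDR binding to the coregulator peptide SRC2-3. Compounds were pin-transferred (23 nl) into the reagent mix and incubated 2 h at room temperature before reading.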
Active calls of the source: *; ? = inconclusive; & = joins results of further samples. % is set by controls: 0 for no effect and ±100 for the full control effect; potency is the fitted concentration of half-maximal effect.

Compound | VDR inhibitor
CCN(CC)CCn1c2c(c(SCC(=O)Nc3cccc(C(F)(F)F)c3)nc1=O)CCC2 | 6.3%
CCN(CC)C(=O)C(=O)c1cccn1-c1cccc(-n2cccc2C(=O)C(=O)N(CC)CC)c1C#N | -14.1%
Nc1c(C(=O)Nc2ccccc2F)sc2nc(-c3cccnc3)ccc12 | -8.5%
OCC1(Cc2ccccc2C(F)(F)F)CCN(Cc2ccc3c(c2)CCO3)CC1 | -8.5%
Cc1ccn2cc(CCNC(=O)C3CCCCC3)nc2c1 | -7.1%
Cn1c(=O)c2c(nc3n2CC(COc2ccc(Cl)cc2)O3)n(C)c1=O (stereo not given) | 1.0%
CC(=O)c1ccc(N2C(=O)C3C4C=CC(CC4)C3C2=O)cc1 (stereo not given) | 12.1%
Cn1c(SCC(=O)Nc2ccc(F)cc2)nc2c(c1=O)SCC2 | -6.5%
COc1ccccc1NC(=O)c1c(NCc2ccc(C)o2)sc2c1CCC(C)C2 (stereo not given) | -18.5%
Cc1ccc(C)c(C(=O)Nc2cc(C)nn2-c2nc(C)cc(C)n2)c1 | -10.9%
CC1CCCN(CC(O)COc2ccc3c(c2)OCO3)C1 (stereo not given) | -11.9%
CCCN(C(=O)c1cccs1)c1nnc(-c2ccncc2)s1 | 2.9%
CC1CN(S(=O)(=O)c2cccc(C(=O)N(CCc3ccccc3)Cc3ccccc3)c2)CC(C)O1 (stereo not given) | -17.9%
CCn1c(=O)cc(OCC(=O)NCCCN2CCCC2=O)c2ccccc21 | -3.5%
COc1ccc(-c2cc(C(F)(F)F)c(C#N)c(SCC(=O)Nc3cccc(C)c3)n2)cc1 | -15.4%
COc1ccccc1NC(=O)CSc1nncn2c1cc1sccc12 | -0.1%
COCCOC(=O)c1c(C)oc2ccc(OC(=O)c3ccco3)cc12 | 1.2%
CCSc1nnc(NC(=O)NC2CCCCC2)s1 | -6.2%
N=c1n(CC(=O)c2ccc([N+](=O)[O-])cc2)c2ccccc2n1Cc1ccccc1Cl | -6.6%
CN1CCN(C(=O)c2cnn(-c3ccccc3)c2NC(=O)c2ccccc2)CC1 | -6.8%
O=C(CCCCN1CCCCC1)c1ccc2c(c1)Cc1ccccc1-2 | -13.7%
CC1CC(C)(C)NC(=S)N1CCC(=O)N1CCN(c2ccccc2)CC1 (stereo not given) | -20.2%
N[C@](CC1c2ccccc2Oc2ccccc21)(C(=O)O)[C@H]1C[C@@H]1C(=O)O | 10.8%
CN(C)c1ccc(NC(=O)c2ccc([N+](=O)[O-])cc2Cl)cc1 | -3.4%
Cc1ccc(C(OCCN(C)C)c2cccc(C(F)(F)F)c2)cc1 (stereo not given) | 2.1%
CC(C)c1ccc(NC2CCCN(C(=O)c3cccc4nccnc34)C2)cc1 (stereo not given) | -13.7%
CCC(=O)OCc1c(C(F)(F)F)nn(C)c1Oc1cccc(C(F)(F)F)c1 | 1.3%
CC1=CC(C)C2C(=O)N(CCCN(C)C)C(=O)C2C1 (stereo not given) | -12.6%
CC(=O)c1cc2c(cc1N(C(=O)Cn1nnc3ccccc31)C(C(=O)NCCC(C)C)c1cccnc1)OCO2 (stereo not given) | 3.2%
COc1cccc(OCCNC(=O)Nc2cc(F)c(F)cc2Cl)c1 | 2.0%
C[C@@H]1CC=C[C@H]2[C@H]1C(=O)N(Cc1ccccc1)[C@H]2c1ccc2ccccc2c1/C=C/c1ccccc1 | -8.9%
COc1ccc(CNC(=O)c2cc(-c3ccc(OC)cc3)nc3n[nH]c(-c4cccc([N+](=O)[O-])c4)c23)cc1 | 6.8%
COc1ccc2c(c1)Cc1sc(NC(=O)c3ccccc3)nc1-2 | -19.9%
COc1ccc(C2=NS(=O)(=O)N(C)C(C(=O)N(C)Cc3ccccc3)=C2)cc1OC | -4.3%&11.0%
c1coc(-c2nnc(-c3ccco3)nn2)c1 | 89.1µM*
O=S(=O)(c1ccc(Oc2ncnc3scc(-c4ccccc4)c23)cc1)N1CCOCC1 | 0.7%
CCOC(=O)CCCNC(=O)COC(=O)[C@@H]1CCCN1S(=O)(=O)c1ccc(Cl)cc1 | -4.1%
COc1ccc2nc(N/C(N)=N/C(=S)Nc3c(C)cccc3C)nc(C)c2c1 | -19.0%
O=C(Nc1ccc(N2CCCC2)cc1)c1ccc(Br)cc1 | 3.4%
CCC(C)(C)NC(=S)Nc1ccccc1C | -0.4%
COc1ccccc1C1CC(c2ccco2)=NN1c1ccccc1 (stereo not given) | 0.1%
N#C/C(=C\c1cc([N+](=O)[O-])c(N2CCCCC2)cc1N1CCCCC1)c1nn(-c2ccccc2)c(N)c1C#N | -17.1%
O=c1nc(SCc2cccc(C(F)(F)F)c2)nc2ccccn12 | 17.5%
COc1cccc(-n2c(-c3ccc(Cl)cc3)cc3c2CC(C)(C)CC3=O)c1 | -11.4%
CN(C)c1ccc(C(=S)NC2CCCCC2)cc1 | ?
O=C(COC(=O)CC1CCCC1)Nc1ccccc1[N+](=O)[O-] | 10.3%
CSc1cccc(NC(=O)C2CC(=O)N(Cc3ccccc3)C2)c1 (stereo not given) | 3.6%
Fc1ccc(-c2csc3ncnc(N4CCN(Cc5ccccc5)CC4)c23)cc1 | -20.4%
O=C(Nc1ccc(Oc2ccccc2)nc1)C1CCCCN1Cc1ccc(OCCO)cc1 (stereo not given) | -1.0%
CC(NC(=O)C1CCN(S(=O)(=O)c2cccc3cccnc23)CC1)c1ccccc1 (stereo not given) | 10.6%

New compounds follow:
Compound | VDR inhibitor
O=[N+]([O-])c1ccc2nc(SCc3ccccc3Cl)sc2c1 | 9.2%
COc1ccc(OC)c(NC(=O)CSC2=Nc3ccccc3C3=NC(CCC(=O)NCc4ccco4)C(=O)N23)c1 (stereo not given) | -2.4%
COc1ccc(NC(=O)/C=C/c2ccc3c(c2)OCO3)cc1 | 6.2%
CCCCCCCCNS(=O)(=O)CCNC1CCCCC1 | -6.5%
N#Cc1ccc(OCC(=O)Nc2cc(S(=O)(=O)N3CCCCC3)ccc2N2CCCCC2)cc1 | -17.9%
COc1ccc2nc(Nc3ccc4c(c3)OCO4)sc2c1 | -21.9%
Cc1nn(C)c(C)c1CNC(=O)Nc1cccc(Cl)c1 | 0.6%
Fc1ccc(NC(=S)Nc2cccc3cnccc23)cc1 | -18.4%
CCN1CCN(C(c2ccc(F)cc2)c2nnnn2Cc2ccc3c(c2)OCO3)CC1 (stereo not given) | -2.9%
O=[N+]([O-])c1ccc2ncnc(Nc3ccc4c(c3)OCCO4)c2c1 | -1.5%
CC(Oc1ccccc1Cl)C(=O)N1CCOCC1 (stereo not given) | -8.3%
Cc1c(NC(=S)Nc2ccccc2)c(=O)n(-c2ccccc2)n1C | 7.8%
CC(C)C(=O)N1c2ccccc2NC2=C(C(=O)CCC2)C1c1ccc(N(C)C)cc1 (stereo not given) | 4.3%
CCC1CCCCN1CCCNC(=O)c1ccc(CS(=O)(=O)c2ccc(Br)cc2)o1 (stereo not given) | 8.6%
CCc1cc(C(=O)N=Nc2c(O)[nH]c3c(Br)cc(Br)cc23)c2ccccc2n1 | -21.7%
COc1ccc(NC(=O)CN(C)C(=O)Cc2ccc(-c3ccccc3)cc2)cc1 | -12.2%
O=C(N/N=C/c1ccc(Br)s1)c1cccc([N+](=O)[O-])c1 | 2.6%
CC(C)Oc1ccc(CNS(=O)(=O)c2ccc3c(c2)C(C)(C)C(=O)N3C)cc1 | 8.4%
Cc1ccc(C(NC(=O)N2CCN(C)CC2)C(Cl)Cl)cc1F (stereo not given) | ?
CC(=O)N1CCN(c2nc3ccc(Br)cc3s2)CC1 | 0.4%
O=C(Cc1ccccc1)c1ccc(O)cc1 | -12.7%
C=CCc1cccc(/C=N/NC(=O)CCC(=O)Nc2ccc(C)cc2)c1O | -20.5%
COc1ccc(OCCC(=O)Nc2ccccc2)cc1 | -3.6%
O=C(Cn1cnc([N+](=O)[O-])n1)N/N=C/c1cccc(Cl)c1 | 8.2%
NC(=O)c1cc(-c2csc(NCCc3ccccc3)n2)ccc1O | 25.8%
O=S(=O)(Nc1cccc(-c2ccc3nncn3n2)c1)c1cc(F)ccc1F | 3.1%
Cc1nc2c(-c3ccccc3)c(C)nn2c(C)c1CCC(=O)NC(C)CCc1ccco1 (stereo not given) | -9.1%
CCC(=O)N1CCc2cc(Br)cc(S(=O)(=O)CCC(=O)NCCc3ccccc3)c21 | -20.7%&-2.8%
CCOC(=O)C1CCN(c2cc3c(cc2NC(=O)c2cc(OC)ccc2Br)n(C)c(=O)n3C)CC1 | -22.8%
Cc1ccsc1CN(C)CC(=O)Nc1ccccc1C(=O)NC1CC1 | 0.9%
O=C(CN1CCSC1=NCc1ccccc1)c1ccc(Cl)cc1 | -20.8%
CC1CCN(C(=O)CSc2nnc(N)s2)CC1 | 4.5%
O=C(Nc1ccccc1C(=O)OCC(=O)N1CCc2ccccc2C1)c1ccco1 | 9.6%
COc1cccc(-c2nnc(-c3ccccc3[N+](=O)[O-])o2)c1 | 6.2%
OCC1OC([S-])[C@H](O)C(O)C1O.[Au+] (stereo not given in full) | ?
O=C1C(Cl)=C(Nc2ccc3cn[nH]c3c2)C(=O)c2ccccc21 | ?
O=C1CC(=O)Nc2cc(S(=O)(=O)Nc3cccc(Br)c3)ccc2N1 | -3.4%
CC1CCOC2(O1)C(=O)N(CN1CCN(c3ccccc3F)CC1)c1ccccc12 (stereo not given) | 17.9%
Cc1ccccc1NCc1nc2ccccc2n1CCOc1ccccc1 | -27.7%
CCCCC1=CC2=CC(=O)C(C)(OC(=O)CC)C(=O)C2=CN1c1cccc(C#N)c1 (stereo not given) | -22.1%
Cc1ccnc(NC(c2ccccc2O)c2oc(CO)cc(=O)c2O)c1 (stereo not given) | -12.7%
O=C(NCCc1ccccc1)C(=O)NCC1OCCN1S(=O)(=O)c1ccc(Br)cc1 (stereo not given) | -16.5%
O=C(/C=C/c1cccs1)N1CCN(c2ccc(O)cc2)CC1 | 0.2%
CCOc1ccccc1CNC(=O)c1cccc(NC(=O)c2nsc3ccccc23)c1 | 12.6%
CCOC(=O)c1[nH]c(C)c(CN(CCc2ccc(OC)c(OC)c2)C(=O)CCCC(=O)O)c1C | 20.5%
CC(N=C1NS(=O)(=O)c2ccccc21)C(=O)NCc1ccc(F)cc1 (stereo not given) | -23.6%
Fc1ccc(-n2ncc3c(N4CCC(Cc5ccccc5)CC4)ncnc32)cc1 | -1.8%
CC12CCC(=O)N1C(C(=O)Nc1ccccc1N1CCCCC1)CS2 (stereo not given) | 7.2%
Cc1ccc2c(c1)Sc1c(ccc3ccccc13)N2 | -17.8%
CCN1CCN(Cc2ccc(NC(=O)c3cc(NC(=O)c4ccno4)cc(OC)c3)cc2C(F)(F)F)CC1 | -16.6%

The list goes on, overlapping the part above by 4 compounds.
Compound | VDR inhibitor
Fc1ccc(-n2ncc3c(N4CCC(Cc5ccccc5)CC4)ncnc32)cc1 | -1.8%
CC12CCC(=O)N1C(C(=O)Nc1ccccc1N1CCCCC1)CS2 (stereo not given) | 7.2%
Cc1ccc2c(c1)Sc1c(ccc3ccccc13)N2 | -17.8%
CCN1CCN(Cc2ccc(NC(=O)c3cc(NC(=O)c4ccno4)cc(OC)c3)cc2C(F)(F)F)CC1 | -16.6%
Cn1ccc(C(=O)Nc2sc3c(c2C(N)=O)CCCCC3)n1 | 2.8%
Cc1cc2nc(-c3ccc(OCc4ccccc4Cl)cc3)cc(C(F)(F)F)n2n1 | 15.8%
O=C(CCCn1c(=O)[nH]c2ccccc2c1=O)NCCSCc1ccccc1 | -3.3%
O=C(NCc1cccs1)c1nc2ncccn2n1 | 4.6%
CCc1nnc(NC(=O)C2CCN(C(=O)c3ccccc3C)CC2)s1 | 0.9%
Nc1ccc(S(=O)(=O)c2ccc(N)c(N)c2)cc1 | 26.8%
O=C1c2ccccc2C(=O)N1CCOCCN1C(=O)c2ccccc2C1=O | -9.8%
CN(C)C(=O)CCC(=O)N1CCCC(C(=O)c2ccc(C(F)(F)F)cc2)C1 (stereo not given) | 6.5%
CC1CCN(S(=O)(=O)CCNC(=O)c2ccc(F)cc2)CC1 | 6.4%
COC(=O)c1cc2sc(Cl)cc2n1Cc1nc(-c2ccccc2)oc1C | 3.9%
Cc1cc[n+](-c2[nH]c(=O)sc2/C=N/NC([S-])=Nc2ccccc2)cc1 | -26.6%
CCOC(=O)C1CCN(c2ncnc3c2c(-c2ccccc2)cn3-c2ccc(C)cc2)CC1 | -7.6%
CC(C)(C)NC(=O)CN(C(=O)CNS(=O)(=O)c1ccccc1)c1ccc2c(c1)OCCO2 | -6.6%
CN1/C(=C/C2CC(=O)N(c3cccc4ccccc34)C2=O)C(C)(C)c2ccccc21 (stereo not given) | 14.7%
Cc1cccc2c1ncc1c(=O)n(-c3ccccc3)[nH]c12 | 0.0%
COc1ccc(-c2cc(C(=O)N3CCOCC3)c3cc(C)ccc3n2)cc1 | -4.5%
C[C@H]1CC[C@]2(O[C@@H](CCO)C[C@H](O)[C@H]2O)O1 | -1.1%
COc1cccc(N/C=C/C(=O)c2ccc(Br)cc2)c1 | 1.2%
COc1cccc(CC(=O)Nc2ccc3nc(C)sc3c2)c1 | -24.6%
O=C1NC(=O)c2cc([N+](=O)[O-])cc3cccc1c23 | -3.1%
COc1ccc(OC)c(C2Nc3c(C)cc(C)cc3-c3cc(C)nn32)c1 (stereo not given) | -13.2%
O=C(Nc1ccccc1N1CCCCC1)c1ncoc1-c1ccc(F)cc1 | 2.1%

Exported with each value named: entries from further up.
O=C(Nc1ccccc1C(=O)OCC(=O)N1CCc2ccccc2C1)c1ccco1
- VDR inhibitor: 9.6%
CSc1cccc(NC(=O)C2CC(=O)N(Cc3ccccc3)C2)c1 (stereo not given)
- VDR inhibitor: 3.6%

The list is partial, so the mix of outcomes need not match the whole.
